Mtb growth – M. tuberculosis H37Rv growth inhibitors, H37Rv strain (AID 1626). M. tuberculosis H37Rv growth inhibition; higher % means a stronger effect. one-dose inhibition, % at 10 µM; IC50 in µM for titrated hits. 0.95% of 220,000 active;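 active means confirmed in a dose series; inconclusive means inhibition above 80% but not taken into the dose series; inactive means below 80% or under 30% at every dose of the series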;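 further: bacteria incubated seven days before Alamar blue readout; 0% = bacteria only wells and 100% = bacteria with antibiotic wells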
Arbovirus anti – antivirals against arbovirus infection; arbovirus infection cell-based antiviral screen; 0.37% of 200,000 active; inhibition, % at 10 µM;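 active means inhibition from about 30%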;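 further: bluetongue infection of BSR cells; cell survival read as ATP light after 72 h; 0% = infected wells without compound and 100% = uninfected wells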
YopH PTP inh – blocks Yersinia enterocolitica YopH tyrosine phosphatase; fluorescence Ex485/Em525; 0.16% of 140,000 active; inhibition, %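 (about 10 µM by stock and volumes)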;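 active means inhibition of 50% or more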;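 further: controls were vehicle for no effect and minimum signal wells for full effect; inactives centre near -20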
RecA intein inh – blocks M. tuberculosis RecA intein splicing | inhibition, %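 (about 9 µM by stock and volumes)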 | 0.75% of 290,000 active | P9WHJ3 | cell-free RecA intein splicing, fluorescence; in the data active means inhibition above about 30%; inconclusive means no clear call, values can overlap the other calls;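 further: 0% = vehicle wells and 100% = reference inhibitor control wells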
Target sequence (P9WHJ3 whole entry, looked up): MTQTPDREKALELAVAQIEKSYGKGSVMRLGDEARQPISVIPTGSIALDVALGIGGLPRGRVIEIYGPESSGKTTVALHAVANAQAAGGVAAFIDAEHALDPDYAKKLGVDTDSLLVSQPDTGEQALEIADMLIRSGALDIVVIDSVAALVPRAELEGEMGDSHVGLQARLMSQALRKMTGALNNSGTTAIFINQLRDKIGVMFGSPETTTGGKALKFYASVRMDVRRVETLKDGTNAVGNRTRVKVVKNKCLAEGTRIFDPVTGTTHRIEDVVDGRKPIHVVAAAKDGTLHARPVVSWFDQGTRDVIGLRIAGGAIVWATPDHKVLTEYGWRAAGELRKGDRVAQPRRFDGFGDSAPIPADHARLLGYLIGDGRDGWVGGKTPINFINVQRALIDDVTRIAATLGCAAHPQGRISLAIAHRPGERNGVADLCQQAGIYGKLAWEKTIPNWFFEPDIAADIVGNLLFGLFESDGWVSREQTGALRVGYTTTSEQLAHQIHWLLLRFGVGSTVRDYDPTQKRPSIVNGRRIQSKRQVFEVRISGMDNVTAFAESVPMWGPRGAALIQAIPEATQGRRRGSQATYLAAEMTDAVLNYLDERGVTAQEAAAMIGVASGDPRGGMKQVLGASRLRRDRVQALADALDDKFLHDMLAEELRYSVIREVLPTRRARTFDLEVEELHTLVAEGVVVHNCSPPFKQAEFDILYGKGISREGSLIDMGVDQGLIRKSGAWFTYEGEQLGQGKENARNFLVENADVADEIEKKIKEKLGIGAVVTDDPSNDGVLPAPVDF
Mtb betalactam – beta-lactam sensitization of Mtb H37Rv | M. tuberculosis H37Rv growth with meropenem, percent inhibition; hits of this screen are not shown here | inhibition, % at 25 µM | 0.27% of 330,000 active;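 active means about 74% or more and at least 40 points above the plate without the antibiotic, then above 30% in a dose series; inconclusive means first-round hits that could not be retested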;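 further: growth measured after seven days incubation then overnight dye step; 0% = bacteria only wells and 100% = bacteria with antibiotic; twin plates without the antibiotic show which effects depend on it; some results filed as inactive read as strong as hits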
Arbovirus anti repeat – further read-out of Arbovirus anti, marked with its call; inhibition, %; measured here: 10K subset replicate screen; many hits read low in the repeat;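 first of two repeat runs on a subset; 0% = infected and 100% = uninfected wells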
The depositor's hits bear a star; u = inconclusive; x = no result given. Not all compounds are listed, so the mix of outcomes need not match the whole.

SMILES	Mtb growth	Arbovirus anti	YopH PTP inh	RecA intein inh	Mtb betalactam	others
COc1ccc2[nH]c(C(=O)N/N=C/c3ccc(OC)c(O)c3)cc2c1	x	x	x	0.0	-2
COc1ccc2cc(C)c3nnc(SCc4cccnc4)n3c2c1	5%	3	x	-0.1	1
COc1ccc(NC(=O)c2cc3c(=O)n(C)c4ccccc4c3n2C)cc1OC	2%	9	-38	-0.2	-8	Arbovirus anti repeat=-2
N#C/C(=C\c1cccc([N+](=O)[O-])c1)C(=O)NCc1ccc(Cl)cc1	4%	-29	x	x	x
COc1ccc(NS(=O)(=O)c2cn(C)nc2C)cc1	x	x	x	0.8	u
O=C(/C=C/c1ccc(Cl)cc1Cl)NCCSc1ccccc1	10%	21	-22	-3.2	-2
COc1ccccc1N1CCN(C(=O)c2cc(-c3ccc(Cl)cc3)on2)CC1	-3%	3	-33	0.9	5
COCCCNC(=S)Nc1cccc(S(=O)(=O)NC2=NCCC2)c1	2%	5	x	-0.9	-10
CCCC1=Nc2cc(C(=O)NCc3ccco3)ccc2Sc2ccccc21	-4%	-2	-25	4.8	-2
CCOC(=O)C1(Cc2ccccc2C)CCCN(C(=O)CCC(=O)OC)C1 (configuration not stated)	x	x	x	1.5	0
Clc1ccc2nc(N3CCN(c4ccccc4)CC3)sc2c1	-10%	-10	-8	-6.4	-7
COc1ccccc1C1/C(=C(/O)c2ccccc2)C(=O)C(=O)N1CCO (configuration not stated)	-9%	12	-46	0.2	5
COc1cc(C2C3=C(CC(C)(C)CC3=O)N(C)C(=O)N2C)cc(OC)c1OC (configuration not stated)	-12%	7	-34	-0.1	-4	Arbovirus anti repeat=2
O=C(Nc1ccc(Br)cc1Cl)c1cnccn1	1%	-5	-38	0.8	0	Arbovirus anti repeat=-7
CC(C)OC(=O)CSc1nc(-c2ccc(F)cc2)nc2ccc(F)cc12	4%	-5	-36	-0.5	3
OCC1(CCOc2ccccc2)CCN(Cc2nc3ccc(F)cc3[nH]2)CC1	-2%	55*	x	1.1	2
CC(NC(=O)c1ccccc1NC(=O)c1ccccc1)C(=O)N1CCOCC1 (configuration not stated)	-4%	3	-17	-4.5	3
Cc1cc2ncc(S(C)(=O)=O)c(N)n2n1	-8%	20	x	-3.8	-4
Cc1cc(C)c(S(=O)(=O)N2CCN=C2c2ccccc2)c(C)c1	1%	-11	-18	2.2	2
Fc1ccc(N2CCN(c3ccc4c(C(F)(F)F)cc(C(F)(F)F)nc4n3)CC2)cc1	7%	-7	-12	-6.1	10
CSc1ccccc1NC(=O)CN(C)CC(=O)Nc1ccc(N2CCOCC2)cc1	-2%	3	x	-1.4	-12
C=CCOc1c(Br)cc(CNn2nnnc2N)cc1OCC	-4%	4	27	0.0	-5
CN1CCN(C(=O)c2ccccc2N(Cc2ccccc2)S(C)(=O)=O)CC1	-2%	-1	-20	-0.4	-1
COc1ccc(CCn2ccc(O)c(Cc3ccc(Cl)cc3)c2=O)cc1OC	-1%	-1	x	-0.2	3
CCCCN1C(=O)N(c2ccc(Cl)cc2)C(C)(O)CC1(C)C (configuration not stated)	x	x	x	-0.2	-2
(listing goes on)
SMILES	Mtb growth	Arbovirus anti	YopH PTP inh	RecA intein inh	Mtb betalactam	others
O=C(CC1SC(=Nc2ccccc2)N(Cc2ccccn2)C1=O)Nc1cccc(Cl)c1 (configuration not stated)	17%	-20	-7	10	54
CCN(CC)CCNC(=O)c1ccc2c(=O)n(CCc3ccccc3)c(=O)[nH]c2c1	-7%	-22	-28	0.5	79
COC(=O)C(Cc1ccc(O)cc1)NC(=O)C(C)NC(=O)c1ccc(C(C)(C)C)cc1 (configuration not stated)	x	x	x	0.2	-7
Cc1ccc(N2CC(C(=O)N3CCC4(CC3)CC(=O)c3ccccc3O4)CC2=O)cc1 (configuration not stated)	x	x	x	1.2	-9
O=C(COCc1cc(-c2cccs2)on1)NC1CCCCC1	x	x	x	-1.9	-3
COCCn1c(SCC(=O)Nc2ccc3c(c2)OCCO3)nc2c(c1=O)SC(C)C2 (configuration not stated)	2%	-2	-34	x	-3	Arbovirus anti repeat=1
CC(O)CCC(=O)NNC1CC(=O)N(c2ccccc2)C1=O (configuration not stated)	-9%	x	x	x	-14
CCCNC(=O)c1onc(CS(=O)(=O)c2cccc(OC)c2)c1C(=O)NCCC	x	x	x	-2.7	-3
CC(Nc1[nH]c(=O)n(C)c(=O)c1N=O)c1ccccc1 (configuration not stated)	8%	6	x	-3.7	3
CCOc1ccccc1NC(=O)CSc1nnc(CCC(=O)Nc2ccccc2F)n1C	x	x	x	2.4	3
O=C1Nc2c(c(=O)[nH]c(=O)n2-c2ccccc2)C(C(F)(F)F)(C(F)(F)F)N1	-12%	5	-31	-1.7	-4
NC(=S)N/N=C/c1ccc(-c2cccc([N+](=O)[O-])c2)o1	x	-21	-38	-0.9	93
CCC(CC)C(=O)N(CCc1ccc(OC)cc1)Cc1nc2ccccc2c(=O)[nH]1	10%	-6	-19	3.5	-5
CSc1ccc(CN(C)C(=O)c2cc(=O)[nH]c3ccccc23)cc1	x	x	x	1.5	8
Cc1ccc(C)c(NC(=O)CN(C)C(=O)CSC(C)C(=O)Nc2cc(C)on2)c1 (configuration not stated)	x	x	x	6.9	-1
O=C(NC(=S)Nc1ccccc1)c1ccc(-c2ccccc2)cc1	5%	12	-24	0.9	2
O=S(=O)(c1ccc(Br)cc1)N1CCCC1	x	x	x	0.5	-4
CCN(CC)S(=O)(=O)c1ccc(NC(=O)CSc2nnc(-c3cccc(OC)c3)n2C)cc1	2%	2	10	7.9	-9
Cc1c(C(=O)N2CCN(c3ccccn3)CC2)sc2ncnc(N3CCN(c4ccccc4)CC3)c12	30%	x	3	x	72
O=C(CCNS(=O)(=O)/C=C/c1ccccc1)NCCc1c[nH]c2ccccc12	x	x	x	0.7	4
CCCCn1c(O)c(N=NC(=O)c2ccccc2NS(=O)(=O)c2cccs2)c2ccccc21	-5%	7	-29	3.1	13
O=C(NCC(=O)N(CCN1CCOCC1)C(C(=O)NC1CCCC1)c1cccnc1)c1cccs1 (configuration not stated)	2%	4	-3	-0.9	-12
O=C(Cc1ccc(Cl)cc1)NCC(=O)N1CCCC1	1%	4	-16	-0.6	-3
Cc1c(NC(=S)N/N=C/c2cccc(O)c2)c(=O)n(-c2ccccc2)n1C	-4%	-2	-15	1.1	-10
Cc1ccc(S(=O)(=O)N2CCCC(C(=O)NC3CC3)C2)cc1 (configuration not stated)	x	x	x	0.0	-2
Following part
SMILES	Mtb growth	Arbovirus anti	YopH PTP inh	RecA intein inh	Mtb betalactam	others
Cc1cc(C)n(C(C[N+](=O)[O-])c2ccc(Cl)cc2)n1 (configuration not stated)	-3%	6	0	2.4	92
CCn1c2ccccc2c2cc(CNCCCN3CCOCC3)ccc21	x	x	x	3.5	-11
Cc1ccc(CN2CCC(Oc3cccc(C(=O)N(C)CCN(C)C)c3)CC2)cc1C	x	x	x	12	-10
COc1cc(C(=O)Nc2cc(C)c(OCC(=O)N3CCOCC3)c(C)c2)cc(OC)c1OC	-9%	0	-7	0.1	-14	Arbovirus anti repeat=0
CN1/C(=C\C(=O)CSc2cccc[n+]2[O-])C(C)(C)c2ccccc21	u	9	x	-1.4	-11
Cn1c(SCC(=O)Nc2nccs2)nnc1C12CC3CC(CC(C3)C1)C2	-11%	7	-21	0.5	0
COc1ccc2nc(C(C)O)[nH]c2c1 (configuration not stated)	-11%	-5	-12	1.8	-11
CCOC(=O)c1ccc(NC(=O)Nc2ncccc2C)cc1	95%	-13	x	0.2	29
COc1ccc(C2CCCN2C(=O)Nc2cccc(C(C)=O)c2)cc1OC (configuration not stated)	-7%	-5	-25	-3.4	-12
CCCCNC(=O)c1sc(=S)n(-c2ccccc2OC)c1N	1%	-1	-16	-1.4	9
Nc1ccc(OCC(O)C[n+]2ccc(CCS(=O)(=O)[O-])cc2)cc1 (configuration not stated)	0%	6	x	5.9	5
COc1ccc(C(=O)c2c(N)sc3c2CCN(C(=O)OC(C)(C)C)C3)cc1	-2%	x	x	6.9	2
NC(=O)COc1ncn(-c2ccccc2)n1	-12%	-1	6	-2.4	0
CCCNC(=O)c1ccc2c(=O)c(O)c(-c3ccc(C)cc3)[nH]c2c1	3%	x	x	3.2	-3
CC(/C=N\NC(=O)Cn1c(C)nc2ccccc21)=C\c1ccccc1	x	8	-29	5.2	-5
CC(=O)Nc1ccc(S(=O)(=O)N2CCC(C(=O)NCc3ccco3)CC2)cc1	x	x	x	-0.6	0
C=CCCN(C(CC(C)C)C(=O)OC)S(=O)(=O)c1cc(Br)ccc1Br (configuration not stated)	5%	x	x	6.7	-13
C#CCOCCOCCOCCNc1nc(N2CCOCC2)nc(N2CCN(C(=O)[C@H](C)n3cc(CCCN=C(N)N)nn3)CC2)n1	-12%	-4	-15	-1.0	-5
COCCn1c(SCC(=O)Nc2ccc(Cl)cn2)nc2ccccc21	1%	9	-31	-1.9	3
CC(=O)Nc1ccc(NC2=C(Cl)C(=O)c3ccccc3C2=O)cc1	-14%	-37	x	7.4	x
COc1ccc(S(=O)(=O)N2CCc3ccccc32)cc1C(=O)NCCc1ccccn1	-9%	7	x	-0.6	-6
CCOC(=O)c1cnn(-c2ccccc2)c1-n1cccc1C(=O)C(=O)Nc1ccc(F)cc1	5%	4	-32	5.6	-5
COc1ccc(C(=O)NN2C(=O)C3CCC(C)(C2=O)C3(C)C)cc1 (configuration not stated)	-2%	5	-35	3.0	-4
COCCSc1ccccc1C(=O)Nc1ccncc1	-12%	12	-13	1.1	-6
Cc1cc2c(c(=O)n1CCc1ccccc1)C(C(C)C)C(C#N)=C(N)O2 (configuration not stated)	-11%	1	-19	0.3	-4
The list continues:
SMILES	Mtb growth	Arbovirus anti	YopH PTP inh	RecA intein inh	Mtb betalactam	others
Cc1cccc(-c2nnc3n2N=C(c2ccccc2)CS3)c1	5%	-11	-30	-2.4	3
Cc1cc(C(=O)CSc2n[nH]c(N)n2)c(C)n1-c1ccc(F)cc1	-10%	-6	9	-0.8	-7
CCn1c(CCc2nc3ccccc3[nH]2)n[nH]c1=S	-4%	5	x	-2.5	-4
CCOCC(=O)Nc1cc(-c2cn3cccnc3n2)ccc1C	-7%	5	-40	-7.6	-13
O=C(O)Cc1csc(NC(=O)CSc2cccc(C(=O)O)n2)n1	-2%	x	x	-0.9	-5
Cc1cc(C(=O)CSc2nnc(-c3cccnc3)n2-c2ccccc2F)c(C)n1CC1CCCO1 (configuration not stated)	2%	-4	-15	2.2	-8
O=C(Cn1cc(S(=O)(=O)Cc2ccccc2)c2ccccc21)N1CCOCC1	x	x	x	1.1	1
O=C1NC2(CCCCC2)C(=O)N1CCN1C(=O)c2ccccc2C1=O	0%	11	x	-2.3	0
Cc1oc2cc3oc(=O)c(CCC(=O)N[C@H](C(=O)O)C(C)C)c(C)c3cc2c1C	x	x	x	-7.1	u
COc1cc2c(cc1NS(=O)(=O)N1CCCCC1)oc1ccccc12	0%	-28	-11	2.0	-5
O=C(NCC1CCN(Cc2ccccc2F)CC1)C1CCCN(c2ncnc3c2nc2n3CCCCC2)C1 (configuration not stated)	x	x	x	0.3	2
CC(=O)n1ccnc1	x	x	x	0.6	-1
CC(NC(=O)C1CCN(C(=O)Nc2ccccc2)CC1)c1ccccc1 (configuration not stated)	x	x	x	-0.8	-17
COC(=O)C1=C(C(=O)OC)C(c2ccc(OC)c(OC)c2)c2sc(=O)[nH]c2S1 (configuration not stated)	2%	-3	x	-2.3	-3
CCOC(=O)/C=C/c1nc(C(=O)OCC)c(C)c(=O)[nH]1	-13%	x	x	-0.9	-6
COc1cc(C(=O)NC2CC(C)(C)Cc3c2cnn3-c2ccccc2)cc(OC)c1OC (configuration not stated)	x	x	x	1.0	1
O=C1c2ccccc2C(=O)N1/N=C/c1ccc(O)c(O)c1	-1%	-2	-21	-4.4	1
CCN(CC(=O)Nc1cccc(OC)c1)CC(=O)Nc1ccccc1C	x	x	x	1.5	-1

Already shown: 3 of the compounds above.
SMILES	Mtb growth	Arbovirus anti	YopH PTP inh	RecA intein inh	Mtb betalactam	others
Cc1cccc(-c2nnc3n2N=C(c2ccccc2)CS3)c1	5%	-11	-30	-2.4	3
Cc1cc(C(=O)CSc2n[nH]c(N)n2)c(C)n1-c1ccc(F)cc1	-10%	-6	9	-0.8	-7
CCn1c(CCc2nc3ccccc3[nH]2)n[nH]c1=S	-4%	5	x	-2.5	-4

Quoted at random: four records from the list.
SMILES	Mtb growth	Arbovirus anti	YopH PTP inh	RecA intein inh	Mtb betalactam	others
COc1ccc2cc(C)c3nnc(SCc4cccnc4)n3c2c1	5%	3	x	-0.1	1
C=CCCN(C(CC(C)C)C(=O)OC)S(=O)(=O)c1cc(Br)ccc1Br (configuration not stated)	5%	x	x	6.7	-13
CC(Nc1[nH]c(=O)n(C)c(=O)c1N=O)c1ccccc1 (configuration not stated)	8%	6	x	-3.7	3
O=C1c2ccccc2C(=O)N1/N=C/c1ccc(O)c(O)c1	-1%	-2	-21	-4.4	1

Assay outcomes: PubChem, several laboratories
